RGS16-Gao HTS = modulators of RGS16 binding to Galphao, primary screen, biochemical, human proteins, multiplexed bead flow cytometry; binding response (% of control), % at 10 µM; Regulator of G-protein signaling 16 (Homo sapiens) + Guanine nucleotide-binding protein …; bead-based flow cytometry RGS16-Galphao binding, fluorescence; actives lie on both sides; 0.38% of 220,000 active; AID 1441, 2008;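 active = below 25% or above 175%, edge rows of some plates excepted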;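 also: Galphao activated by GDP with aluminum fluoride before binding; 100% = wells without compound and 0% = beads without RGS; some results beyond the cut were filed as inactive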
Target sequence (O15492 whole entry, looked up): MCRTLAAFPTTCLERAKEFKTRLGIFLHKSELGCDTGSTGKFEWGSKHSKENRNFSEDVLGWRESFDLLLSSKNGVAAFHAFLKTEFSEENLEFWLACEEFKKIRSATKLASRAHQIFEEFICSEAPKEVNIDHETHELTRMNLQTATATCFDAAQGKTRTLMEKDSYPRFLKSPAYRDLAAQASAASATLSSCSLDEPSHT
Target sequence (P09471 whole entry, looked up): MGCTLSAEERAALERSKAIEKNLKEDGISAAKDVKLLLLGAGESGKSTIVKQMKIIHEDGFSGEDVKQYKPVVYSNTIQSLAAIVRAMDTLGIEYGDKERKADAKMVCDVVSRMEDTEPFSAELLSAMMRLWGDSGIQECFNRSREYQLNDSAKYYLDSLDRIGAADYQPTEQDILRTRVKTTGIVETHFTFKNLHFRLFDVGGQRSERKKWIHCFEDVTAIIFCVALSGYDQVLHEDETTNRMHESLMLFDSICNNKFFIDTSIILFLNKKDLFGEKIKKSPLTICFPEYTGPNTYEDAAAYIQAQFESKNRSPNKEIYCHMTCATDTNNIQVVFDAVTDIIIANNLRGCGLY
PKD1 inh = inhibitors of human PKD1 kinase, biochemical, fluorescence polarization; Serine/threonine-protein kinase D1 (Homo sapiens), Q15139; PKD1 kinase fluorescence polarization assay; inhibition, %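 (about 10 µM by stock and volumes)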; 0.056% of 200,000 active;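 active = inhibition of 50% or more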;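 also: controls were vehicle for no effect and a reference inhibitor for full effect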
GALR2 agonist = GALR2 receptor agonists, primary screen, cell-based; GALR2-expressing cells, agonist activation read-out; activation, %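 (tested at 5 µM)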; 0.48% of 140,000 active;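 active = above mean plus 3 SD of all compounds, about 5% in these data, not always enough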;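 also: 0% = vehicle buffer wells and 100% = reference agonist at full effect; tested in CHO reporter cells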
Target sequence (O43603 whole entry, looked up): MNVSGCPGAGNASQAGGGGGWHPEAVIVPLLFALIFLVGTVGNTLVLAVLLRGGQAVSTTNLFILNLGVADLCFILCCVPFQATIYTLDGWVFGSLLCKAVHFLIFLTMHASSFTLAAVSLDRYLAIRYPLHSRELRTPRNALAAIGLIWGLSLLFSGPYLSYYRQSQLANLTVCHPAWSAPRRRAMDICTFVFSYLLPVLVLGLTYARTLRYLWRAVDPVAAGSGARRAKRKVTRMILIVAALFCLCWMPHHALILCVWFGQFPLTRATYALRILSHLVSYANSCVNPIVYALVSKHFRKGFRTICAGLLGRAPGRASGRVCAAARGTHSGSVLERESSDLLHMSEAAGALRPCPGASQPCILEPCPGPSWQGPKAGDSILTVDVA
Insulin prom inh = inhibitors of insulin promoter-driven GFP, primary screen, imaging, TRM-6 cells (human fetal islet line), eGFP reporter, cell count | 0.9% of 130,000 active | inhibition, % at 2 µM | reporter expression induced with tamoxifen | AID 1273, 2008;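 active = inhibition above the mean plus 3 SD, with well images judged a real hit on visual review, cut at about 60% in these data, passing the limit was not always enough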
HSV augment = enhancers of HSV replication in host cells, fold increase, host cell viability; HSV replication augmentation in cells; maximum fold increase; 0.005% of 220,000 active;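 active = peak rise of 1.5-fold or more in the series; tested in PC3 cells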;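 also: first round at 10 µM; read as green reporter fluorescence; hits show the peak of a series up to 25 µM; 1 = signal of infected wells without compound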
Insulin prom inh cell count = recorded beside Insulin prom inh, whose call it bears; normalized cell count, %; measured here: cell count, toxicity; reference of the scale not given here;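 cells exposed to compound for 48 h; stained nuclei by imaging scaled within each plate; lower means fewer cells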
HSV augment primary fold = recorded beside HSV augment, whose call it bears; fold increase; compound at 10 µM; measured here: primary screen fold increase 10 uM; tested in PC3 cells;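 GFP signal in the first replicate; 1 = infected wells without compound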
Starred values were filed as active, the others as inactive; i = inactive; . = not tested or not shown.

| molecule | RGS16-Gao HTS | PKD1 inh | GALR2 agonist | Insulin prom inh | Insulin prom inh cell count | HSV augment | HSV augment primary fold |
| --- | --- | --- | --- | --- | --- | --- | --- |
| CS(=O)(=O)CCC(C(=O)OCC(=O)c1ccc(Cl)cc1)N1C(=O)c2ccccc2C1=O (stereo unspecified) | 99 | -1 | 0.2 | . | . | . | . |
| O=C(OCCCN=C1NS(=O)(=O)c2ccccc21)c1ccc([N+](=O)[O-])cc1 | 100 | -2 | . | 28 | 82 | i | 1 |
| [N-]=[N+]=CC(=O)C(c1ccccc1)(c1ccccc1)c1ccccc1 | 96 | . | . | . | . | i | 0.92 |
| CC(C)Cn1c(SCc2nc3ccccc3c(=O)[nH]2)nc2ccccc2c1=O | 53 | -1 | -2.2 | 37 | 94 | i | 0.69 |
| Cc1n[nH]c(=S)n(NC(=O)CC(=O)Nn2c(=S)[nH]nc(C)c2=O)c1=O | 105 | 1 | . | . | . | i | 0.89 |
| O=C1C2C(C(=O)N1/N=C/c1cc([N+](=O)[O-])c(O)cc1O)C1C=CC2C12CC2 (stereo unspecified) | 98 | -1 | . | . | . | i | 0.97 |
| CCCNC(=O)Cn1cnc2sc(C(=O)N3CCN(c4ccc(F)cc4)CC3)c(C)c2c1=O | 96 | 4 | -1.8 | . | . | i | 0.88 |
| O=C(NNC(=S)NC1CCCCC1)c1ccc(Cl)s1 | 101 | -1 | . | . | . | i | 0.89 |
| Cc1nc2cc(S(=O)(=O)N(C)C)ccc2n1-c1ccccc1 | 100 | -8 | -1.2 | 22 | 104 | i | 0.86 |
| CCC1CCCCN1C(=O)CN1C(=O)CSC1=O (stereo unspecified) | 108 | 8 | -1.9 | . | . | i | 1.1 |
| Cc1ccc(S(=O)(=O)/N=C(\Nc2cc(C)on2)c2ccc(Cl)cc2)cc1 | 97 | -14 | -2.5 | 50 | 142 | i | 0.93 |
| CN1c2ccccc2C(=O)C(=C2SCCCS2)S1(=O)=O | 113 | . | . | . | . | i | 1.2 |
| Cc1ccccc1N/C(SCc1cccc(Br)c1)=C(/C#N)C(N)=O | 102 | -13 | 0.1 | . | . | i | 0.84 |
| O=[N+]([O-])c1ccccc1/C=N/Nc1nnc(-c2ccccc2)c(-c2ccccc2)n1 | 94 | -6 | 0.3 | 31 | 72 | i | 0.84 |
| Cc1ccc(NC(=O)c2nc[nH]c2C(=O)N[C@@H](C)C(=O)OC(C)(C)C)cc1 | 100 | . | . | . | . | i | 0.79 |
| CCc1ccc(/C=N/NC(=O)c2cc(C)on2)s1 | 98 | 2 | -0.3 | 9 | 137 | i | 0.98 |
| CN1CCN(CC(=O)C23CC4CC(CC(C4)C2)C3)CC1 | 98 | -3 | -1.4 | . | . | i | 1.1 |
| C(=N\N=C\c1cccnc1)/c1cccnc1 | 100 | -7 | -0.7 | -16 | 134 | i | 0.93 |
| COc1nc(-c2ccncc2)nc2ccccc12 | 101 | 2 | -0.1 | -37 | 58 | i | 0.72 |
| Cc1[nH]n(C)c(=O)c1C(=O)c1c(-c2ccccc2Cl)noc1C | 103 | . | . | . | . | i | 0.83 |
| CCOc1cc(/C=C2\N=C(SCC)SC2=O)cc([N+](=O)[O-])c1OC(C)=O | 96 | 2 | -3.0 | . | . | i | 1.1 |
| COc1ccc2cc(C#N)c(SCC(=O)NNC(=O)Cc3ccccc3)nc2c1 | 101 | -12 | -0.4 | . | . | i | 1.1 |
| O=C(Nc1ccc(CN2CCOCC2)cc1)c1cccc(-c2cc3ccccc3oc2=O)c1 | 96 | 4 | . | 30 | 87 | i | 0.9 |
| CCOc1ccc(/C=N/OCC(=O)NCc2ccc3c(c2)OCO3)cc1OC | 101 | 4 | -0.4 | . | . | i | 1.1 |
| Cc1cc(C)nc(SCNC(=O)c2ccc(F)cc2)n1 | 96 | 2 | -0.3 | 55 | 107 | i | 0.95 |
| COC(=O)CNC(=O)c1c(-c2ccccc2Cl)noc1C | 107 | -19 | 1.1 | . | . | i | 0.88 |
| CCC1=NN2C(=N)/C(=C/c3c(C)nn(-c4ccccc4)c3Cl)C(=O)N=C2S1 | 107 | 0 | -1.4 | . | . | i | 1 |
| CCC(C)NC(=O)CCS(=O)(=O)c1ccc(Br)s1 (stereo unspecified) | 102 | 5 | -1.2 | 18 | 135 | . | . |
| Cc1cccc(C)c1NC(=O)C(Cl)=C(Cl)Cl | 101 | -3 | . | . | . | i | 0.75 |
| Cc1cc(=O)[nH]c(Sc2c(-c3ccccc3)c3ccccc3[nH]c2=O)n1 | 108 | -2 | -2.7 | -14 | 124 | i | 0.97 |
| CCN(Cc1ccccc1)C(=O)COC(=O)CNC(=O)c1ccc(C)s1 | 100 | 0 | . | -19 | 160 | i | 1 |
| Cc1cc(C)cc(NC(=S)NC2CC3CCCC(C2)N3C2CC2)c1 (stereo unspecified) | 97 | 0 | . | . | . | i | 0.86 |
| CCOc1ccc(NC(=O)CN(C)c2nnnn2-c2ccccc2)cc1OCC | 127 | -4 | -2.7 | . | . | i | 0.92 |
| COc1ccc(Oc2nc3ccccc3n3cccc23)cc1 | 102 | 9 | -0.5 | 18 | 80 | i | 0.96 |
| COc1ccc(CNC(=O)COC(=O)C2CCN(S(=O)(=O)c3ccccc3C(F)(F)F)CC2)cc1 | 103 | -5 | -0.7 | 30 | 136 | i | 0.9 |
| COc1ccc(S(=O)(=O)N2CCOCC2)cc1NC(=O)CSc1ncnc2ccccc12 | 107 | -4 | . | . | . | i | 0.75 |
| CCc1nnc(NC(=O)CSc2nnnn2-c2cccc(C(=O)OC)c2)s1 | 99 | 4 | -1.3 | . | . | i | 0.94 |
| CC(C)c1cc(C(N)=O)c(NC(=O)c2cccc(COc3ccc(Cl)cc3)c2)s1 | 106 | 0 | -1.9 | -14 | 200 | . | . |
| CCN(CC)S(=O)(=O)c1ccc(N2CCOCC2)c(NC(=O)COc2ccc(Cl)cc2)c1 | 96 | . | . | . | . | i | 0.85 |
| Cc1cc(/C=C2/C(=N)N3C(=NC2=O)SN=C3S(C)(=O)=O)c(C)n1-c1ccc(F)cc1 | 110 | -1 | . | . | . | i | 1.1 |
| O=C(C1=NNC2C(=O)N(c3ccccc3)C(=O)C12)c1nc(Cl)ccc1Cl (stereo unspecified) | 103 | -12 | -0.5 | -38 | 117 | i | 1 |
| COc1ccc(NC(=S)N2CCc3ccccc3C2)cc1 | 101 | -5 | -0.3 | -23 | 132 | i | 1 |
| O=C(NCc1cccnc1)C(=O)N/N=C/c1ccc([N+](=O)[O-])cc1 | 103 | 1 | . | . | . | i | 1 |
| O=C(c1ccc([N+](=O)[O-])cc1)N(C1=NCCCCS1)c1ccccc1 | 108 | -3 | -2.4 | 22 | 118 | i | 1 |
| CCN(CC)CC(O)CN1C(=O)NC(C)(C)C1=O (stereo unspecified) | 105 | 6 | . | . | . | i | 0.97 |
| CCOC(=O)C1CCN(C(=O)Nc2ccc3oc(C)nc3c2)CC1 | 88 | -7 | 0.4 | -41 | 95 | i | 1 |
| Cc1ccc(-c2nnc(N3CCC(C)CC3)c3ccccc23)cc1C | 99 | -11 | . | . | . | i | 0.74 |
| C/C(=N\NC(=O)CNC(=O)C(c1ccccc1)c1ccccc1)c1ccc(C)cc1 | 102 | -7 | -1.7 | 29 | 124 | i | 0.9 |
| CNC(=S)Nc1cc(C)ccc1OC(F)F | 102 | 1 | . | . | . | i | 1.1 |
| Cc1cc(=O)n2[nH]c(C)c(-c3ccc(Cl)cc3)c2n1 | 99 | -4 | -0.7 | -35 | 114 | i | 0.89 |
| Cc1ccccc1OCC(=O)OCC(=O)Nc1ccc(S(N)(=O)=O)cc1 | 100 | 2 | . | -12 | 85 | i | 0.92 |
| Cc1ccc(S(=O)(=O)NN2C(=O)/C(=C/c3cccs3)SC2=S)cc1 | 96 | . | . | . | . | i | 0.87 |
| COC(=O)c1ccc(C(=O)OC)c(NC(=O)CN(C)Cc2cccc(Cl)c2Cl)c1 | 96 | -10 | -0.9 | 31 | 101 | i | 1 |
| CSc1nc(N2CCOCC2)c2ccccc2n1 | 103 | -2 | -0.2 | -12 | 196 | i | 1.5 |
| O=C(Nc1cccc(Br)c1)c1ccc(OC2CSC2)cc1 | 100 | -3 | . | . | . | i | 0.92 |
| COc1ccc(S(=O)(=O)N2CCOCC2)cc1C(=O)Nc1cc(C)on1 | 95 | -4 | -2.0 | 71 | 138 | i | 1.1 |
| CCc1nnc(NC(=O)C2CCC2)s1 | 102 | -2 | -2.8 | . | . | i | 0.78 |
| Cc1nc(Sc2cccn2C)c(C(F)(F)F)c(=O)[nH]1 | 78 | -4 | -1.2 | 28 | 111 | i | 0.86 |
| O=C(N/N=C/c1ccc2c(c1)OCO2)c1cc(-c2ccncc2)nc2ccccc12 | 104 | 6 | 1.8 | . | . | i | 0.5 |
| O=C(CSc1nnc(-c2ccccc2)n1-c1ccc(Cl)cc1)N/N=C/c1ccco1 | 102 | 0 | -0.9 | . | . | i | 1 |

(next part)
compound	RGS16-Gao HTS	PKD1 inh	GALR2 agonist	Insulin prom inh	Insulin prom inh cell count	HSV augment	HSV augment primary fold
O=C(O)c1oc2ccccc2c1CSc1ccccn1	102	-6	-0.2	18	79	i	0.88
CCN1CCCC1CNC(=O)C(=O)Nc1ccccc1OC (stereo unspecified)	108	-8	-0.5	-27	108	i	0.88
O=C(CCCSc1nc2ccccc2c(=O)[nH]1)c1ccc(F)cc1	105	1	.	17	36	i	0.89
CC(=O)Nc1nc(SCCCc2ccccc2)n[nH]1	102	1	0.6	62	97	i	0.91

Shown with two lines to a compound: entries from further up.
Values run as follows: RGS16-Gao HTS | PKD1 inh | GALR2 agonist | Insulin prom inh | Insulin prom inh cell count | HSV augment | HSV augment primary fold
- CS(=O)(=O)CCC(C(=O)OCC(=O)c1ccc(Cl)cc1)N1C(=O)c2ccccc2C1=O (stereo unspecified)
 : 99 | -1 | 0.2 | . | . | . | .
- O=C(OCCCN=C1NS(=O)(=O)c2ccccc21)c1ccc([N+](=O)[O-])cc1
 : 100 | -2 | . | 28 | 82 | i | 1
- [N-]=[N+]=CC(=O)C(c1ccccc1)(c1ccccc1)c1ccccc1
 : 96 | . | . | . | . | i | 0.92
- CC(C)Cn1c(SCc2nc3ccccc3c(=O)[nH]2)nc2ccccc2c1=O
 : 53 | -1 | -2.2 | 37 | 94 | i | 0.69
- Cc1n[nH]c(=S)n(NC(=O)CC(=O)Nn2c(=S)[nH]nc(C)c2=O)c1=O
 : 105 | 1 | . | . | . | i | 0.89
- O=C1C2C(C(=O)N1/N=C/c1cc([N+](=O)[O-])c(O)cc1O)C1C=CC2C12CC2 (stereo unspecified)
 : 98 | -1 | . | . | . | i | 0.97
- CCCNC(=O)Cn1cnc2sc(C(=O)N3CCN(c4ccc(F)cc4)CC3)c(C)c2c1=O
 : 96 | 4 | -1.8 | . | . | i | 0.88
- O=C(NNC(=S)NC1CCCCC1)c1ccc(Cl)s1
 : 101 | -1 | . | . | . | i | 0.89
- Cc1nc2cc(S(=O)(=O)N(C)C)ccc2n1-c1ccccc1
 : 100 | -8 | -1.2 | 22 | 104 | i | 0.86
- CCC1CCCCN1C(=O)CN1C(=O)CSC1=O (stereo unspecified)
 : 108 | 8 | -1.9 | . | . | i | 1.1
- Cc1ccc(S(=O)(=O)/N=C(\Nc2cc(C)on2)c2ccc(Cl)cc2)cc1
 : 97 | -14 | -2.5 | 50 | 142 | i | 0.93
- CN1c2ccccc2C(=O)C(=C2SCCCS2)S1(=O)=O
 : 113 | . | . | . | . | i | 1.2
- Cc1ccccc1N/C(SCc1cccc(Br)c1)=C(/C#N)C(N)=O
 : 102 | -13 | 0.1 | . | . | i | 0.84
- O=[N+]([O-])c1ccccc1/C=N/Nc1nnc(-c2ccccc2)c(-c2ccccc2)n1
 : 94 | -6 | 0.3 | 31 | 72 | i | 0.84
- Cc1ccc(NC(=O)c2nc[nH]c2C(=O)N[C@@H](C)C(=O)OC(C)(C)C)cc1
 : 100 | . | . | . | . | i | 0.79
- CCc1ccc(/C=N/NC(=O)c2cc(C)on2)s1
 : 98 | 2 | -0.3 | 9 | 137 | i | 0.98
- CN1CCN(CC(=O)C23CC4CC(CC(C4)C2)C3)CC1
 : 98 | -3 | -1.4 | . | . | i | 1.1
- C(=N\N=C\c1cccnc1)/c1cccnc1
 : 100 | -7 | -0.7 | -16 | 134 | i | 0.93
- COc1nc(-c2ccncc2)nc2ccccc12
 : 101 | 2 | -0.1 | -37 | 58 | i | 0.72
